# RecA intein inh: Mtb RecA intein splicing inhibitors, primary screen, biochemical, fluorescence, HTS; Protein RecA (Mycobacterium tuberculosis (strain ATCC 25618 / H37Rv)), P9WHJ3; cell-free RecA intein splicing; inhibition, %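 (about 9 µM by stock and volumes)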; 0.75% of 290,000 active; AID 2221, 2009; in the data active = inhibition above about 30%; inconclusive = no clear call, values can overlap the other calls;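 note: 0% = vehicle wells and 100% = reference inhibitor control wells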
# Target sequence (P9WHJ3 whole entry, looked up): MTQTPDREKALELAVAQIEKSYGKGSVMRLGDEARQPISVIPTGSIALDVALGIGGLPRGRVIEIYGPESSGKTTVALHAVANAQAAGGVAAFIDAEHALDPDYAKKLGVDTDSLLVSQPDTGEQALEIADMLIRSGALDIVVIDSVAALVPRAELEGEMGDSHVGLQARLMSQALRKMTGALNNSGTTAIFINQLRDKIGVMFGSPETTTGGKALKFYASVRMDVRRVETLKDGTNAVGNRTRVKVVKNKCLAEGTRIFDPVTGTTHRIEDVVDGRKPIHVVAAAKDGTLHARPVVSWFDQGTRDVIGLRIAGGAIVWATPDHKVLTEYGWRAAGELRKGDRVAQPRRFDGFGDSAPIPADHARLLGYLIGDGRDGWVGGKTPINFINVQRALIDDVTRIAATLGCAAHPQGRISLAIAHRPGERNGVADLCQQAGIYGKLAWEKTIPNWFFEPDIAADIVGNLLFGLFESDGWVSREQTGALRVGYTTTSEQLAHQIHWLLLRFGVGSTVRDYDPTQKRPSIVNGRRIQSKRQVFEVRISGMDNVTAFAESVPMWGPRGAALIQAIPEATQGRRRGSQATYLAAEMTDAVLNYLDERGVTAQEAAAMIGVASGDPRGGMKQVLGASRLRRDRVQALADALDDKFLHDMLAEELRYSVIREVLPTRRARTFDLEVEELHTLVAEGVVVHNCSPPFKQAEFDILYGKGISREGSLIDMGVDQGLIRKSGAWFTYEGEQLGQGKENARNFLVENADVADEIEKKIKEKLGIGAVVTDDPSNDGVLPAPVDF
# YopH PTP inh: YopH tyrosine phosphatase inhibitors, primary screen, biochemical, fluorescence Ex485/Em525; YopH tyrosine phosphatase [Yersinia enterocolitica]; inhibition, %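 (about 10 µM by stock and volumes)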; 0.16% of 140,000 active; AID 898, 2007;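 active = inhibition of 50% or more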;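 note: controls were vehicle for no effect and minimum signal wells for full effect; inactives centre near -20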
# Mtb bLac sens: beta-lactam sensitization of Mtb H37Rv, H37Rv | M. tuberculosis H37Rv growth with meropenem, percent inhibition; hits of this screen are not shown here | 0.27% of 330,000 active | AID 434955, 2010 | inhibition, % at 25 µM;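 active = about 74% or more and at least 40 points above the plate without the antibiotic, then above 30% in a dose series; inconclusive = first-round hits that could not be retested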;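 note: growth measured after seven days incubation then overnight dye step; 0% = bacteria only wells and 100% = bacteria with antibiotic; twin plates without the antibiotic show which effects depend on it; some results filed as inactive read as strong as hits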
# Mtb growth: M. tuberculosis H37Rv growth inhibitors, H37Rv strain (AID 1626); inhibition, % at 10 µM; hits with a dose series show IC50 in µM; M. tuberculosis H37Rv growth inhibition; higher % means a stronger effect; 0.95% of 220,000 active;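 active = confirmed in a dose series; inconclusive = inhibition above 80% but not taken into the dose series; inactive = below 80% or under 30% at every dose of the series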;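 note: bacteria incubated seven days before Alamar blue readout; 0% = bacteria only wells and 100% = bacteria with antibiotic wells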
# Arbovirus inh: antivirals against arbovirus infection, primary screen, cell-based, full library, 10K replicate subset; AID 1251, 2008; 0.37% of 200,000 active; arbovirus infection cell-based antiviral screen; inhibition, % at 10 µM;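 active = inhibition from about 30%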;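 note: bluetongue infection of BSR cells; cell survival read as ATP light after 72 h; 0% = infected wells without compound and 100% = uninfected wells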
# Arbovirus inh repeat: recorded beside Arbovirus inh, whose call it bears; inhibition, %; measured here: 10K subset replicate screen; many hits read low in the repeat;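 first of two repeat runs on a subset; 0% = infected and 100% = uninfected wells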
# The depositor's hits bear a star; ? = inconclusive; . = not tested or not shown. A portion of the library. The share of hits here may be higher or lower than overall.
SMILES,RecA intein inh,YopH PTP inh,Mtb bLac sens,Mtb growth,Arbovirus inh,others
CC(C)CN(CC(C)C)C(=O)Nc1ccc(F)cc1F,-1.0,.,-4,-7%,.,
CCc1ccc(NC(=O)CC2C(=O)NCCN2C(=O)c2ccccc2OC)cc1 (centres undefined),-0.5,.,-1,.,.,
O=C(O)C1CCCCC1C(=O)Nc1ccc2c(c1)CCC2 (centres undefined),-1.6,-23,92,74µM*,3,
COc1ccc(/C=N/Nc2ccccn2)cc1O,-2.5,.,-7,0%,.,
COc1cc(CN=C(C)c2c(O)n(C3CCCCC3)c(=O)[nH]c2=O)cc(OC)c1,2.6,.,33,4%,.,
Cc1ccc(S(=O)(=O)c2cc3ccccc3oc2=O)cc1,-1.9,.,3,4%,-1,
COc1ccc(NC(=O)CSc2nc(-c3ccc(C)cc3)cc(C(F)(F)F)c2C#N)cc1,-1.4,-39,7,-14%,7,
COc1cc(NC(=O)C2CCCN(S(=O)(=O)c3cnc[nH]3)C2)cc(OC)c1 (centres undefined),-2.1,-44,1,0%,-3,
Cc1ccc(/C=N/Nc2nncn2N)cc1,-4.5,.,96,.,.,
CCSc1ccccc1C(=O)N1CCC2(CC1)CC(=O)c1ccccc1O2,2.0,.,-1,.,.,
O=C(Nc1ccccc1F)C1C2C=CC3(O2)C1C(=O)N(c1cccnc1)C3C(=O)NC1CCCCC1 (centres undefined),-3.3,-37,0,-3%,3,
Cn1c(Sc2nc3ccccc3n2C)nc2ccccc21,4.1,6,4,3%,7,
CC(C)Sc1nc2ccsc2c(=O)[nH]1,-1.1,.,-1,6%,5,
Cc1ccc(S(=O)(=O)Nc2nc3ccccc3s2)cc1[N+](=O)[O-],-1.2,.,0,-1%,14,
O=C(O)CCSc1nc(C(F)(F)F)cc(=O)n1-c1ccccc1,-3.4,-42,-3,-7%,5,
Cc1ccc(S(=O)(=O)N2CCCC(C(=O)N3CCN(c4ccccc4)CC3)C2)cc1 (centres undefined),1.2,.,2,.,.,
CCOC(=O)Cc1csc(NC(=O)CSc2nc3sc(C(=O)O)c(C)c3c(=O)[nH]2)n1,-0.8,-16,-9,-12%,3,
O=C(CC1C(=O)NCCN1C(=O)Nc1ccccc1)Nc1ccc2c(c1)OCCO2 (centres undefined),-0.3,-17,-4,-8%,7,
O=C(CSc1nnc(-c2cccnc2)o1)c1cc2ccccc2oc1=O,1.5,-25,-5,-10%,-3,
COc1ccc(C2NC(c3ccc(OC)cc3OC)C(C)C(=O)C2C)c(OC)c1 (centres undefined),51*,.,-1,4%,4,

# Structures shown so far containing a halogen (4):
SMILES,RecA intein inh,YopH PTP inh,Mtb bLac sens,Mtb growth,Arbovirus inh,others
CC(C)CN(CC(C)C)C(=O)Nc1ccc(F)cc1F,-1.0,.,-4,-7%,.,
COc1ccc(NC(=O)CSc2nc(-c3ccc(C)cc3)cc(C(F)(F)F)c2C#N)cc1,-1.4,-39,7,-14%,7,
O=C(Nc1ccccc1F)C1C2C=CC3(O2)C1C(=O)N(c1cccnc1)C3C(=O)NC1CCCCC1 (centres undefined),-3.3,-37,0,-3%,3,
O=C(O)CCSc1nc(C(F)(F)F)cc(=O)n1-c1ccccc1,-3.4,-42,-3,-7%,5,

# The list continues.
SMILES,RecA intein inh,YopH PTP inh,Mtb bLac sens,Mtb growth,Arbovirus inh,others
COCCN(C(=S)Nc1ccccc1OC)C1CCN(C(C)=O)CC1,-0.1,-18,-3,-5%,4,
Cc1cc(-c2ccccc2)nc2cc(C(=O)NCc3ccco3)nn12,-1.1,.,0,-9%,-4,
O=C(Nc1ncccn1)c1ccc(C(F)(F)F)cc1,2.1,-19,2,3%,-3,
O=C(O)CCOc1ccc2c(c1)OCCO2,-1.1,-55,-2,-3%,10,
CCN(CC)CCSc1nnc(Nc2ccccc2)n1-c1ccccc1,-1.8,.,3,1%,-4,
CC(=O)Nc1ccc(NC(=O)CSc2nc3nc(C)cc(C)c3c(=O)[nH]2)cc1,-4.3,.,-3,.,.,
O=C(O)c1cc2nc(-c3ccccc3)cc(-c3ccccc3)n2n1,-20,.,-2,-2%,-4,
COc1ccc(CCNC(=O)Cn2nc([N+](=O)[O-])c(Br)c2C)cc1OC,-2.8,-8,?,7%,6,
Cc1ccc2c(c1)NC(=O)c1cc([N+](=O)[O-])ccc1O2,1.0,.,-7,3%,-9,
Cc1cccc([C@@H]2[C@@H]3C(=O)N(Cc4ccccc4)C(=O)[C@@H]3[C@]3(C)C(=O)N(c4ccc(C(F)(F)F)cc4)C(=O)N23)c1,3.9,.,40,.,.,
CC(C)(C)C(=O)/C(=C/c1ccc(Cl)cc1)n1cncn1,6.2,.,98,.,.,
CC1CCN(S(=O)(=O)c2ccc3c(c2)CC(C)N3C(=O)C2CCC2)CC1 (centres undefined),2.2,.,-6,.,.,
O=C(Nc1ccnn1C1CCN(Cc2ccc(O)c(Cl)c2)CC1)C1CCCC1,-0.4,.,?,.,.,
O=C(Nc1ccc(Oc2cccnc2)cc1)C1CCN(Cc2cc(Cl)ccc2O)CC1,4.4,.,66,.,.,
CC(c1ccco1)N(C(=O)c1ccc(C(F)(F)F)cc1)c1ccccn1 (centres undefined),0.6,.,-3,6%,6,
CCSc1cc(N2CCCC2)nc(-c2ccccc2)n1,-1.5,-4,-2,2%,7,
Cc1ccc(C(c2ccc(C)o2)c2cccc([N+](=O)[O-])c2O)o1,13,-51,-7,-13%,6,
O=C(Nc1sc2c(c1C(=O)O)CCCCC2)c1ccccc1,0.1,.,-7,-12%,69*,
O=C(NCc1cccs1)c1ccccc1C(=O)NCc1cccs1,-0.9,34,-11,-13%,-4,
O=C(Nc1ccc2c(c1)S(=O)(=O)N=C1CCCCCN12)c1ccccc1Cl,-16,.,1,4%,-5,
COc1ccccc1-c1nnc(Nc2nc3c(OC)cccc3s2)o1,0.7,-24,8,9%,-20,
O=C(Cn1cc(C(F)(F)F)cc(Cl)c1=O)Nc1cc(S(=O)(=O)N2CCOCC2)ccc1Cl,-0.8,-47,-4,2%,-7,
O=C(Nc1cccc(S(=O)(=O)N2CCOCC2)c1)C1=NN(c2ccccc2)C(=O)CC1,0.2,.,3,.,.,
CCOc1cc(C(=O)N2CCC3(CC2)NCCc2[nH]cnc23)cc(OCC)c1OCC,-1.4,.,1,.,.,
CC(O)CNc1ccc(-c2nn(C)c(=O)c3ccccc23)cc1[N+](=O)[O-] (centres undefined),-3.9,.,8,3%,-5,
CC(CCCN(C)C)C(Cc1ccccc1)c1ccccc1 (centres undefined),1.6,.,-3,.,.,
CN(C)C1N(C(=O)c2ccccc2)N=C2c3ccccc3S(=O)(=O)N21 (centres undefined),-1.5,.,2,-4%,-3,
CC(=O)Nc1ccc(S(=O)(=O)NC(CC(=O)N2CCC3(CC2)OCCO3)C(C)C)cc1 (centres undefined),0.9,-35,13,-3%,7,
Cc1ccc(S(=O)(=O)Oc2ccccc2/C=C2\SC(=O)NC2=O)cc1,3.7,.,4,-1%,-1,
CC(=O)NCc1ccc2[nH]c(C)cc2c1,2.0,-19,2,4%,-3,
COCCN(C(=O)c1csnn1)C(C(=O)NC1CCCC1)c1ccc(C)cc1 (centres undefined),0.4,.,7,.,.,
COc1ccc(N2C(=O)c3ccccc3NC2c2ccc(OC)c(COc3ccccn3)c2)cc1 (centres undefined),2.4,14,1,3%,-8,
Cc1cccc(C)c1-n1nnnc1SCSc1nnnn1-c1c(C)cccc1C,-2.9,1,-5,1%,5,
Cc1ccc(CC(=O)Nc2nnc(-c3ccc(F)cc3)o2)c(C)c1,-2.4,.,?,.,.,
COc1cccc(NC(=O)Nc2c(C)n(C)n(-c3ccccc3)c2=O)c1,.,-20,-2,-5%,0,
O=C(NCc1cccs1)C1CCN(S(=O)(=O)c2cccc3cccnc23)CC1,-1.6,-26,-3,-5%,0,Arbovirus inh repeat=0
O=C(CCN1CCOCC1)NC12CC3CC(CC(C3)C1)C2,-0.4,.,-7,.,.,
CCOC(=O)c1[nH]c(C)c(C(=O)NCc2ccco2)c1C,-0.1,.,0,3%,-6,
COCCCNC(=O)CSc1nc2cc(C(=O)NCCOC)ccc2c(=O)n1Cc1ccc2c(c1)OCO2,2.0,.,-3,.,.,
Cc1ccc(NS(=O)(=O)c2ccc(OCC(N)=O)cc2)cc1,-0.7,.,-2,3%,3,

# 3 compounds out of the list, sorted by SMILES length, smallest number first.
SMILES,RecA intein inh,YopH PTP inh,Mtb bLac sens,Mtb growth,Arbovirus inh,others
Cc1ccc(NS(=O)(=O)c2ccc(OCC(N)=O)cc2)cc1,-0.7,.,-2,3%,3,
COc1cccc(NC(=O)Nc2c(C)n(C)n(-c3ccccc3)c2=O)c1,.,-20,-2,-5%,0,
O=C(Nc1ccc2c(c1)S(=O)(=O)N=C1CCCCCN12)c1ccccc1Cl,-16,.,1,4%,-5,

# 3 compounds drawn at random from those above:
SMILES,RecA intein inh,YopH PTP inh,Mtb bLac sens,Mtb growth,Arbovirus inh,others
O=C(CCN1CCOCC1)NC12CC3CC(CC(C3)C1)C2,-0.4,.,-7,.,.,
O=C(Cn1cc(C(F)(F)F)cc(Cl)c1=O)Nc1cc(S(=O)(=O)N2CCOCC2)ccc1Cl,-0.8,-47,-4,2%,-7,
O=C(Nc1ccccc1F)C1C2C=CC3(O2)C1C(=O)N(c1cccnc1)C3C(=O)NC1CCCCC1 (centres undefined),-3.3,-37,0,-3%,3,

# Among those listed so far, 5 contain a nitro group on carbon:
SMILES,RecA intein inh,YopH PTP inh,Mtb bLac sens,Mtb growth,Arbovirus inh,others
Cc1ccc(S(=O)(=O)Nc2nc3ccccc3s2)cc1[N+](=O)[O-],-1.2,.,0,-1%,14,
COc1ccc(CCNC(=O)Cn2nc([N+](=O)[O-])c(Br)c2C)cc1OC,-2.8,-8,?,7%,6,
Cc1ccc2c(c1)NC(=O)c1cc([N+](=O)[O-])ccc1O2,1.0,.,-7,3%,-9,
Cc1ccc(C(c2ccc(C)o2)c2cccc([N+](=O)[O-])c2O)o1,13,-51,-7,-13%,6,
CC(O)CNc1ccc(-c2nn(C)c(=O)c3ccccc23)cc1[N+](=O)[O-] (centres undefined),-3.9,.,8,3%,-5,

# Further entries follow.
SMILES,RecA intein inh,YopH PTP inh,Mtb bLac sens,Mtb growth,Arbovirus inh,others
O=C(Cn1cnc2c(nnn2Cc2ccc(Cl)cc2)c1=O)NC1CCCC1,-1.8,-47,-10,-5%,0,
CCCC(=O)Nc1ccc2c(c1)c1ccccc1n2CC,-5.8,-16,-2,2%,-10,
Cn1c(-c2ccc(Br)o2)nc2ccccc21,0.6,-51,-6,7%,-7,
CCOC(=O)C1=C(C)N(CCCCCC(=O)O)C(=O)NC1c1ccccc1OC(=O)c1cccs1 (centres undefined),.,-37,0,-12%,3,
O=C1C2CCCN2C(=S)N1c1ccccc1 (centres undefined),2.2,.,-3,.,.,
O=C(NC(=S)Nc1ccccc1)C1CCCCC1,-0.1,.,-9,.,.,
O=C(CCN1C(=O)C2C3CCC(C3)C2C1=O)Nc1ccccc1Cl (centres undefined),1.3,.,?,.,.,
O=C(Nc1ccccc1F)Nc1ccccc1N1CCCCC1,10,.,58,9%,.,
Cc1cc(C)cc(N(C(=O)c2sc(C)nc2C)C(C(=O)NC(C)(C)C)c2ccncc2)c1 (centres undefined),-0.7,.,-7,4%,-5,
O=C(Nc1ccc2nn(-c3ccc(F)cc3)nc2c1)c1cccnc1,.,.,6,2%,3,
O=C(O)CN(Cc1ccco1)S(=O)(=O)c1ccccc1,-1.5,-51,-16,-6%,0,Arbovirus inh repeat=5
CCOc1ccc(N(CC(=O)NCC2CCCO2)C(=O)CCC(=O)Nc2nccs2)cc1 (centres undefined),2.6,.,-2,-3%,0,
COC(=O)c1ccc(OCC(=O)Nc2ccsc2C(=O)OC)cc1,2.0,.,2,5%,-10,
COc1cccc(N=C2C(=O)N3CCCc4cccc2c43)c1,1.3,-10,-6,6%,2,
Cc1nn(-c2ccccc2)c(C)c1NC(=O)COc1ccc2ccccc2c1,2.1,-7,-4,4%,11,
O=C(O)c1cccc(NCc2ccncc2)c1,0.3,-24,5,.,7,
O=c1cnnc(SCCc2ccccc2)[nH]1,-1.4,-5,-16,-8%,7,
Cc1oc(-c2ccc(Cl)cc2)nc1CS(=O)CC(=O)NC1CCCCCC1 (centres undefined),-0.6,.,1,.,.,
O=C(Nc1cccc(F)c1)C1C2C=CC3(CN(CCCN4CCOCC4)C(=O)C13)O2 (centres undefined),0.4,-14,-9,2%,-2,Arbovirus inh repeat=-1
CCOC(=O)N1CCN(c2c(N3CCOCC3)c(=O)c2=O)CC1,0.4,-25,-3,-7%,1,Arbovirus inh repeat=2

# Bioassay records from PubChem.
